# From PubChem BioAssay
# HCMV UL50-53 inh – disrupts HCMV UL50-UL53 complex binding; AID 1918969; hit rate 0.15% among 190,000; HTRF UL50-UL53 interaction, normalized percent inhibition; inhibition, % (no concentration beside the values);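 active means both replicates at 50% or more, plus weaker picks with an unusually low signal ratio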;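 further: stock transfer was 100 nL into about 20 µL; 0% = negative control wells and 100% = wells with untagged competitor protein; inactives centre near -12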
# GIV-Gai inh – GIV-Galpha-i interaction inhibition | P08753 | Galpha-i3/FITC-GIV peptide fluorescence polarization, 90 min; stronger effect = lower value; scaled: aluminum fluoride 0%, vehicle 100% | percent of control (FP), % (test concentration not listed) | hit rate 0.42% among 210,000;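 active means replicate mean at 85% of control or lower, very high polarization wells dropped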;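 further: wells of about 15 µL received 100 nL stock; the first replicate is given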
# Target sequence (P08753 whole entry, looked up): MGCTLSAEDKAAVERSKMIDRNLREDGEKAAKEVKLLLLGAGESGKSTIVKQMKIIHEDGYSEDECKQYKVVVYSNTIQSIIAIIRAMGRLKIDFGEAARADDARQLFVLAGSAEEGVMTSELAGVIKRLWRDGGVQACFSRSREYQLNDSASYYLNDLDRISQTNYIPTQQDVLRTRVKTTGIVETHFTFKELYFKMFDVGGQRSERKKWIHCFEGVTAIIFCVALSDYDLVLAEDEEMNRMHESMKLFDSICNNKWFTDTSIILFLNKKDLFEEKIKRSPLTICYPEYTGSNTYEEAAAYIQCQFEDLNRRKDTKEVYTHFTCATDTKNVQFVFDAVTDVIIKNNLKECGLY
# Sa growth inh – blocks Staphylococcus aureus growth; AID 720641; S. aureus RN4220 growth, OD600, 20 h, 42 °C; stronger effect = lower value; relative growth, % (concentration not given with the values); hit rate 0.53% among 170,000;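 active means growth at 42 °C up to 50% and 20 or more points under that at 30 °C, or under 10% at both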;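 further: 300 nL library stock went into each well; scaled to the means of positive and negative controls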
# Sa growth inh second temp – also measured in Sa growth inh; calls as there; relative growth, %; measured here: growth at 30 °C;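 optical density after 20 h as mean of two plates; 100% = untreated growth and lower means inhibition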
# * marks the source's active call; other numbers are inactive results; / = not tested or not shown; & = joins results of further samples. These rows are one share of the data. The share of hits here may be higher or lower than overall.
SMILES,HCMV UL50-53 inh,GIV-Gai inh,Sa growth inh,Sa growth inh second temp
O=C(c1sc2ccccc2c1Cl)N1CCC2(CC1)OCCO2,10,102,96,81
CCOc1ccccc1NC1=NCCS1,-5&8,104,121&85,98&104
Cc1cccc(N2CCN(CCN)CC2)c1C,-1,101,86,95
COC(=O)c1c(N)n(Cc2ccco2)c2nc3ccccc3nc12,-67,/,114,80
CN(C)c1ccc(P(=O)(N(C)C)N(C)C)cc1,-33,/,102,86
COc1ccc2[nH]c3c(c2c1)CCNC3,-5,108,/,/
CC1(C)N=C(c2cccnc2)N(O)C1(O)c1ccccc1 (centres undefined),-15,95,81,102
Cc1ccccc1N1CCN(Cc2ccc(O)cc2)CC1,20,103,105,109
CCOC(=O)C1=C(N)Oc2c(oc(CO)cc2=O)C12C(=O)N(CC(N)=O)c1ccccc12 (centres undefined),12,109,104,100
CC1CCC(C(=O)NC(C(=O)N2CCC3(CC2)OCCO3)C(C)C)CC1 (centres undefined),/,101,106,87
Clc1ccc(CCNCc2ccncc2)cc1,-16,102,100,87
NC(=O)c1ccc(NC(=O)c2cccn(Cc3ccccc3)c2=O)cc1,/,103,115,83
O=C(COc1ccccc1Cl)N1CCN(CCc2ccccn2)CC1,8&4,97&103,98,84
O=C(CSC1c2ccccc2Oc2ccccc21)Nc1ccc(C(=O)O)cc1,/,100,86,57
O=C(c1noc2c1COc1ccccc1-2)N1CCC2(CC1)OCCO2,/,101,88,87
CC1=CC(=O)NP(=O)(Oc2ccccc2)N1 (centres undefined),12,98,81,90
CCCCCCCCCOc1ccc2[nH]cc(CCN)c2c1,-32,/,24,0
CCCCC12CN3CC(C)(CN(C1)C3c1ccccn1)C2=O (centres undefined),-4,106,108,83
COCc1c(CN)cnc(C)c1N,-17,103,110,94
COc1ccc(CCN(C)Cc2ccncc2)cc1OC,-2,97,99,116
CN(C)CC1CCCCC1=O (centres undefined),-12,/,94,88
CC(NC(C)(C)C)C(=O)c1cccc(Cl)c1 (centres undefined),-28&-25&-91&-10&-5&-12,105&99,84&88&99&99,84&77&97&94
C1=C(c2ccccc2)CCN(Cn2nnc(-c3ccccc3)n2)C1,-47,/,117,75
CCOC(=O)Cc1ccc(NC(=O)N2Cc3ccccc3-n3cccc3C2c2ccccc2C)cc1 (centres undefined),-16,102,/,/
O=C1OC(c2ccc(Br)cc2)=N/C1=C\N1CC2CC(C1)c1cccc(=O)n1C2 (centres undefined),-54,109,/,/
COCCNP(=O)(c1ccccc1)c1nc2ccccc2s1 (centres undefined),-20,/,82,81
O=c1[nH]c(=S)[nH]c(O)c1-c1ccccc1,-6,101,100,110
Cc1cccc(CN2C(=O)CN=C(c3ccccc3Cl)c3cc(Cl)ccc32)c1,/,103,72,86
CCOC(=O)Cc1ccc(NC(=O)N2Cc3ccccc3-n3cccc3C2c2ccc(F)cc2)cc1 (centres undefined),-6,98,/,/
Cc1cccc2cc(C=C(C#N)C#N)c(Cl)nc12,-32,97,100,70

# Some of these compounds in order of SMILES length, falling:
SMILES,HCMV UL50-53 inh,GIV-Gai inh,Sa growth inh,Sa growth inh second temp
CCOC(=O)C1=C(N)Oc2c(oc(CO)cc2=O)C12C(=O)N(CC(N)=O)c1ccccc12 (centres undefined),12,109,104,100
NC(=O)c1ccc(NC(=O)c2cccn(Cc3ccccc3)c2=O)cc1,/,103,115,83
C1=C(c2ccccc2)CCN(Cn2nnc(-c3ccccc3)n2)C1,-47,/,117,75
CC1=CC(=O)NP(=O)(Oc2ccccc2)N1 (centres undefined),12,98,81,90
COc1ccc2[nH]c3c(c2c1)CCNC3,-5,108,/,/
Cc1cccc(N2CCN(CCN)CC2)c1C,-1,101,86,95

# Later entries
SMILES,HCMV UL50-53 inh,GIV-Gai inh,Sa growth inh,Sa growth inh second temp
CN1CCC2(CC1)CC1CC3C=CC1(CN2)O3 (centres undefined),-22,106,92,87
Cc1ccc(C(=O)C2CN3CCC2CC3)cc1 (centres undefined),-9,102,100,84
CC1(C(=O)O)C2CCC(O2)C1(C)C(=O)O (centres undefined),-4,104,/,/
CCN(CC)C(=O)c1ccc2c(c1)N(CC(=O)NCc1ccc3c(c1)OCO3)C(=O)C1CCCCN21 (centres undefined),-31,105,/,/
CN1CC=C(c2noc(CCC(=O)Nc3ccc(F)cc3F)n2)CC1,/,102,107,94
COC(=O)C1=C(C)OC(N)=C(C(=O)OC(C)C)C12C(=O)Nc1ccccc12 (centres undefined),-17,101,/,/
COc1cc(CNCCc2c[nH]c3ccccc23)cc(OC)c1O,0,100,94,90
CCN(CC)C(=O)c1ccc(N(Cc2ccccc2Cl)S(C)(=O)=O)cc1,/,111,116,83
CN(C)C(=O)Oc1ccc2nnc3ccnn3c2c1,-122,116,97,79
Cc1ccc2nc(C)c3c(c2c1)OCN(CC1CCCO1)C3 (centres undefined),-22,/,99,100
CN1CCN(c2csc3ccc(F)cc3c2=O)CC1,/,104,83,84
CN1C(=O)NC(=O)/C(=C\c2ccc(OCc3ccc(C(=O)O)cc3)c(Br)c2)C1=O,-18,100,/,/
O=c1c2c3c(sc2nc(SCCS(=O)(=O)F)n1-c1ccccc1)CCCC3,-12,103,/,/
CCN1CCN(C(=O)COc2ccc(S(=O)(=O)N(C)Cc3ccccc3)cc2)CC1,0,102,99,86
CCO/N=C/c1c[nH]c2c(CC)cccc12,-43,/,64,92
O=c1c2ccccc2nc(N2CCCCC2)n1-c1ccccc1,0&-16,96&100,116,92
CN=C(Cl)c1ccco1,3,/,88,94
Nc1ccc(Cl)cc1C(=O)c1ccccc1,-14,102,109,93
CC(C)Oc1cccnc1N(C)C1CCN(Cc2ccccc2)CC1,3,107,/,/
O=C1C2CCCC1C(N1CCCCC1)CC2 (centres undefined),-25,99,118,86
Cc1ccc(-c2nc3ccccc3c(=O)n2-n2cccc2)cc1,-22,99,92,88
Cc1ccccc1C=C1C(=O)N(C)C(=S)N(C)C1=O,10,100,100,54
CC1CCN(CC(=O)c2cccc(Br)c2)CC1,14,/,100,94
CCCCN1CC2CC=C(Cl)CC2C1 (centres undefined),-22,107,109,88
Cc1ccc2nc(NC(=O)c3cccn(Cc4ccccc4F)c3=O)sc2c1,/,105,108,85
O=C(Nc1ccc(Br)cc1C(=O)c1ccccc1Cl)c1ccccc1F,-11,108,96,90
CN(C)C(=O)Nc1ccc(Cl)cc1,1,/,73,89
Oc1ccc(-c2ccccc2)cc1,-2,102,121,87
CCNC(=O)[C@H]1O[C@@H](n2cnc3c(N)ncnc32)C(O)[C@H]1O (some centres undefined),-7,105,/,/
CN1CCC(O)(c2ccccc2)C(C(=O)c2ccccc2)C1 (centres undefined),-5,/,71,82
COCCOC(=O)C1=C(N)OC(C)=C(C(C)=O)C12C(=O)Nc1ccc(Br)cc12 (centres undefined),-9,104,/,/
CSc1nc2nc(C)c(CC(=O)N3CCN(Cc4ccc5c(c4)OCO5)CC3)c(C)n2n1,-23,/,98,90
Cc1ccc(C(c2c(O)[nH]c(=O)[nH]c2=O)N2CCCC2)cc1 (centres undefined),4,102,109,98
CCC1=C(C)C(N2CCOCC2)=NP(N2CCOCC2)(N2CCOCC2)=N1,-8,/,107,96
CCC(C)N=Cc1c(O)[nH]c(=O)[nH]c1=O (centres undefined),/,159,96,92
C=CCC1C(=O)NC(=S)NC1=O,-9,103,/,/
C=CCNC(=O)c1c(N)n(Cc2ccc(OC)cc2)c2nc3ccccc3nc12,-9,/,96,98
COc1ccc(NC2=NCC(C)S2)cc1 (centres undefined),0,96,103,103
Cn1c2ccccc2c2c(C(=O)N3CCC4(CC3)OCCO4)cn(C3CCCC3)c(=O)c21,-16,101,111,84
O=C(COc1ccc(Cl)cc1)NC1CN2CCC1CC2 (centres undefined),/,99,91,97
COc1ccc2c(c1)c(C(=O)OCC(N)=O)c(C)n2C1CCCCC1,-19,/,78,78
Cc1cc(OCC(=O)N(C)C)c2c3c(c(=O)oc2c1)CCCC3,/,112,105,94
Cc1cc(OCC(=O)NC2CCCC(C)C2C)c2c3c(c(=O)oc2c1)CCCC3 (centres undefined),-19,/,101,89
COc1ccc(NC(=O)CCc2nc(C3=CCN(Cc4cccc(Cl)c4)CC3)no2)c(OC)c1,/,109,106,85
Nc1c2c(nc3sc4c(c13)CCCC4)CCCC2,-18,107,117,69
CCOC(=O)c1cc(S(=O)(=O)N2CC3CC(C2)c2cccc(=O)n2C3)cn1C (centres undefined),-31&-16,100&100,64,86
O=C1CC(c2cccnc2)Nc2ccc3ccccc3c21 (centres undefined),-40,104,111,83
NCCCP(=O)(O)O,1,108,/,/
CN1C2CCC1CC(OC(=O)C1(c3ccccc3)CCCC1)C2 (centres undefined),17,106,100,90
c1ccc2c(CNC3CCCCCC3)c[nH]c2c1,/,101,122,76
# Next part
SMILES,HCMV UL50-53 inh,GIV-Gai inh,Sa growth inh,Sa growth inh second temp
N#CCCNc1ccccc1,-5,/,98,99
COC(=O)C(c1ccccc1)C1CCCCN1 (centres undefined),-47,/,83,87
O=C(Cc1ccc(Cl)c(Cl)c1)N1CCCCC1CN1CCCC1 (centres undefined),-5&-17,101,/,/
Cc1ccc2c(c1)C1CN(C)CCC1N2C(=O)c1ccc(Br)cc1 (centres undefined),-11,/,79,91
CN1CCc2cc(O)cc3c2[C@H]1Cc1ccc(O)c(O)c1-3,-38,109,/,/
CCOC(=O)c1c(C)n(Cc2ccccc2)c2ccc(OCC(O)CN3CCCCCC3)cc12 (centres undefined),5,/,94,107
COc1cccc2cc(-c3cc(=O)oc4cc(C)c(OC(=O)N(C)C)cc34)oc12,-27,99,94,84
Cc1cc(C)cc(OCC(=O)Nc2ccc(Cl)cc2C(=O)c2ccccc2)c1,-46,104,93,87
O=C1CC(=O)N(Cc2ccc(F)cc2)C(=O)N1,-3,103,94,104
CC12CCC3C(CC=C4CC(O)CCC43C)C1C/C(=C\c1ccc(C(F)(F)F)cc1)C2=O (centres undefined),-10,/,91,75

# Whole records, looked up by structure. Order of screens: HCMV UL50-53 inh, GIV-Gai inh, Sa growth inh, Sa growth inh second temp
# O=C(Cc1ccc(Cl)c(Cl)c1)N1CCCCC1CN1CCCC1 (centres undefined) is listed with -5&-17, 101, /, /
# COc1cccc2cc(-c3cc(=O)oc4cc(C)c(OC(=O)N(C)C)cc34)oc12 is listed with -27, 99, 94, 84
# CC12CCC3C(CC=C4CC(O)CCC43C)C1C/C(=C\c1ccc(C(F)(F)F)cc1)C2=O (centres undefined) is listed with -10, /, 91, 75
# COC(=O)C(c1ccccc1)C1CCCCN1 (centres undefined) is listed with -47, /, 83, 87
# CN1CCc2cc(O)cc3c2[C@H]1Cc1ccc(O)c(O)c1-3 is listed with -38, 109, /, /

# Other compounds.
SMILES,HCMV UL50-53 inh,GIV-Gai inh,Sa growth inh,Sa growth inh second temp
CSc1ncccc1C1=N/C(=C\c2ccc(C)cc2)C(=O)O1,0,106,121,93
Cc1cc(OC(=O)N(C)C)nc(SCc2c(F)cccc2Cl)n1,-5,106,90,74
CC(C)(C)c1ccc(OCCOc2ccccc2C=C2C(=O)NC(=O)NC2=O)cc1,65*,91,/,/
CN(C)[C@@H]1C(=O)C(C(N)=O)=C(O)[C@@]2(O)C(=O)C3=C(O)c4c(O)ccc(Cl)c4[C@@](C)(O)[C@H]3C[C@@H]12,-17,/,-0.1*,-1.1*
Clc1ccc(-c2ccc(Cl)cc2)cc1,-38,99,93,84
CCN(CC)P1(=O)OC(C)(C)CC1(C)O (centres undefined),/,99,87,85
CC(=O)N1CN2CN(C1)CN(C(C)=O)C2,18,107,99,98
O=c1c2ccccc2nc(CN2CCCCC2)n1-c1ccccc1,12,111,105,92
COc1cccc(CNCCc2ccccc2)c1OC,-6,/,113,80
CCc1cccc(NC(=O)CN2C(=O)CN=C(c3ccccc3F)c3cc(Cl)ccc32)c1,/,105,108,90
CN1CCN(C(=O)COc2cccc3ccccc23)CC1,-11,101,95,75
COc1ccc(Cc2nc3ccccc3n2Cc2ccccc2)cc1,/,101,79,50
CCc1ccccc1NC(=O)N1Cc2ccccc2-n2cccc2C12CCN(C(C)=O)CC2,-14&-18,110&104,105,84
O=[N+]([O-])c1cc([As](=O)(O)O)ccc1O,-74&-9,/,83,86
Cc1cc(/C=C2\C(=O)NC(=S)N(c3cccc(Cl)c3)C2=O)c(C)n1-c1cc(C(=O)O)cc(C(=O)O)c1,-14,98,/,/
CCCCC/C=C\C/C=C\C/C=C\C/C=C\CCCC(=O)Nc1ccc(O)cc1,-13&-4&-4,/,80,77
CCN(CC)C(=O)c1ccc(NC(=S)NC2CC2)cc1,-16,/,87,93
Cc1ccc2occ(CN3CC=C(c4ccc(F)cc4)CC3)c(=O)c2c1,1,99,106,106
Cc1ccc(N2Cc3ccccc3C2=N)cc1Cl,-6,/,82,88
Cn1cc(C(=O)OCC(=O)N2CCCC2)c2ccccc21,-18,/,73,90
C/C=C1/CN2CCC34C(=C(C(=O)OC)C1CC23)Nc1c(O)cccc14 (centres undefined),-32,107,105,91
CCN(C(C)=O)c1cccc(-c2ccnc3c(C#N)cnn23)c1,-87,/,84,88
COC(=O)C1C2c3ccccc3OC1(C)N=c1s/c(=C\c3ccc(C)o3)c(=O)n12 (centres undefined),-29,99,72,72
CN1CCc2cccc(Cl)c2CC1,-8,103,/,/
Cn1nc(N)c2c1N=P(N1CCOCC1)(N1CCOCC1)N=C2c1ccccc1,2,/,89,92
CCN(CC)P1(=O)OC(c2ccc(F)cc2)=Nc2c1c(C)nn2-c1ccccc1 (centres undefined),-15,/,100,92
O=C(O)CCCO,-15,/,90,83
Cc1cccc(NC(=O)Cn2cc(C(=O)c3ccccc3)c3ccccc32)c1,17,104,108,92
Cc1oc(-c2ccc(Cl)cc2)nc1CN1C(=O)CN=C(c2ccccc2)c2ccccc21,-11,101,128,97
